Screens deposited in PubChem BioAssay by National Center for Advancing Translational Sciences (NCATS).
PMP22 txn prim = PMP22 gene transcription modulation; S16 Pmp22-F2sN Schwann cells (luciferase reporters placed in the Pmp22 gene), FLuc/NLuc coincidence luminescence, 24 h; Potency, µM (top dose mostly 57.5 µM), for the others: at the top dose activity change, negative = inhibition, most hits filed as inhibitors; 2% of 43,000 active; AID 1508649; active = clear falling dose curves in both reporters; inconclusive = both reporters move, but less clearly or upward; inactive = either reporter flat; the % is the NLuc reporter signal; also: % is scaled to controls: 0 for no effect and ±100 for the full control effect; some results filed as inactive show a strong effect at the top dose
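qHTS, 1536-well. Cells seeded, compounds added by pin tool, 24 h 37C. Nano-Glo reagent 1 (lysis/FLuc), 10 min RT, read; Stop&Glo, 10 min RT, read NLuc.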
HTT prom inh = HTT promoter inhibition; 0.93% of 48,000 active; Potency, µM (titrated, usually from 57.5 µM), for the others: at the top dose activity change, negative = inhibition, hits mostly inhibitors; HEK293 HTT promoter firefly luciferase reporter (activity 0% = vehicle and -100% = no light), 24 h; active = well fitted inhibition curve with a large enough effect; inconclusive = small, poorly fitted or top-dose-only effect; inactive = no such curve, though single readings can be large or run the other way; also: nearly all actives have a fitted effect of over 50% in size
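Firefly luciferase signal from promoter-reporter HEK293 cells was scaled between vehicle (0%) and zero RLU (-100%). Compounds were tested at final concentrations of up to 57.5 uM over 24 h at 37 degrees C. PTC124 at 50 uM final served as control inhibitor.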
Starred values were filed as active, the others as inactive; ? = inconclusive; · = not tested or not shown; & = joins results of further samples; [ ] = dose if it differs, or a comment. Potency is read from the fitted curve at half-maximal effect.

SMILES	PMP22 txn prim	HTT prom inh
COc1cccc(CNC(=O)Cn2c(=O)n3nc(-c4cccc(F)c4)nc3c3ccccc32)c1	-0.6%	0.0%
Cc1ccc(OCC(=O)Nc2ccc3nc(SCCOc4ccccc4)sc3c2)cc1	?	-9.3%
CCn1c(CN2CCCCC2)nc2cc(NC(=O)c3cccc([N+](=O)[O-])c3)ccc21	?	-7.4%
Cc1ccn2c(Nc3ccc(C(C)C)cc3)c(-c3cccs3)nc2c1	-6.9%	?
COc1ccccc1N1CCN(c2ncc3c(n2)CCN(Cc2ccc(C)s2)C3)CC1	-32.6%	?
COc1ccccc1CNC(=O)CCCn1c(=O)c2ccccc2n(CC(=O)Nc2ccc(C)cc2Cl)c1=O	?	-7.2%
Cc1ccc(CNC(=O)C2CCCN(S(=O)(=O)c3ccc4c(c3)oc(=O)n4C)C2)cc1 (configuration not stated)	?	-8.1%
CCN(c1ccccc1)S(=O)(=O)c1nnc(NC(=O)C2CCCCC2)s1	-1.0%	-1.8%
COc1ccccc1CC(=O)Nc1ccc2nc(Nc3cccc(C(F)(F)F)c3)cc(C)c2c1	?	?
CC(=O)N1CCc2c(sc3c2c(=O)n(Cc2ccccc2)c(=O)n3Cc2ccc(Cl)cc2)C1	-25.5%	4.1%
COCCNc1ccc2cc(S(=O)(=O)N3CCCCC3)ccc2n1	-3.4%	3.2%
CCc1cccc(C)c1NC(=O)C1CCN(c2nnc(C)c3c(C)n(-c4ccccc4)nc23)CC1	3.0%	-19.2%
O=C(O)c1ccc2c(c1)ncn2-c1ccc(F)c(F)c1	-4.6%	1.0%
COc1ccc(CCNC(=O)c2c(O)nc3c(C)cccn3c2=O)cc1	-5.9%	1.8%
CCc1ccc(NC(=O)C2CCCN(c3nnc(C)c4c(C)n(-c5ccccc5)nc34)C2)cc1 (configuration not stated)	-10.8%	2.1%
CCCCN(CC)CCCNC(=O)c1cc2c(=O)[nH]c3ccccc3c2n1C	-21.5%	-6.1%
COc1ccccc1CNC(=O)c1oc2ccc(S(=O)(=O)N3CCCCC3)cc2c1C	-14.0%	?
CCCn1c(NCc2ccc(N(CC)CC)cc2)nc2ccccc21	?	-20.8%
Cc1ccc(Cn2c(SCC(=O)NCc3ccccc3Cl)nc3ccsc3c2=O)cc1	?	-15.1%
COC(=O)Nc1nc2ccc(Sc3ccccc3)cc2[nH]1	·	-9.3%&0.9%
Cc1ccc(-n2ncc3c(N4CCN(CCO)CC4)ncnc32)cc1Cl	?	21.2%
Cc1cc(Nc2cc(CN3CCOCC3)c3nc(C)c(Cc4ccc(Cl)cc4F)n3n2)n[nH]1	·	?
CCn1cc(C(=O)NC(C)c2ccccc2)c(=O)c2cc(S(=O)(=O)N3CCc4ccccc4C3)ccc21 (configuration not stated)	?	-23.1%
Cc1ccc(-c2cn3cccnc3n2)cc1NC(=O)Cc1ccccc1	-15.8%	4.3%
Cc1ccc(C)c(N(C)C(=O)Cc2c(C(=O)O)[nH]c3ccc(Cl)cc23)c1	16.4%	-21.6%

Complete entries, looked up by structure. Order of values: PMP22 txn prim	HTT prom inh
Cc1ccc(OCC(=O)Nc2ccc3nc(SCCOc4ccccc4)sc3c2)cc1 is listed as ?	-9.3%
CCCn1c(NCc2ccc(N(CC)CC)cc2)nc2ccccc21 is listed as ?	-20.8%
CC(=O)N1CCc2c(sc3c2c(=O)n(Cc2ccccc2)c(=O)n3Cc2ccc(Cl)cc2)C1 is listed as -25.5%	4.1%

Next records:
SMILES	PMP22 txn prim	HTT prom inh
COC(=O)C1=C(C)NC(C)=C(C(=O)OC(C)C)C1c1cccc2nonc12 (configuration not stated)	·	?
O=C(NCC(c1cccs1)S(=O)(=O)c1cccs1)c1ccc(Cl)cc1 (configuration not stated)	-14.7%	-19.2%
COc1ccc(OC)c(C2=NS(=O)(=O)N(C)C(C(=O)Nc3ccc(F)cc3F)=C2)c1	?	?
COc1ccc(C2CC(=O)N(Cc3ccc(C)cc3)c3c2c(C)nn3-c2nc(C)cc(C)n2)c(OC)c1 (configuration not stated)	-33.0%	-4.3%
COc1ccccc1OCC(=O)Nc1nc2c(s1)CC(C)CC2 (configuration not stated)	-0.6%	-23.1%
CCOC(=O)c1c(C)oc2ncnc(Nc3ccc(OCC)cc3)c12	-15.5%	2.1%
COc1ccc(OC)c(NC(=O)C(Cc2ccccc2)NS(=O)(=O)c2ccc3c(c2)CCC(=O)N3)c1 (configuration not stated)	6.8%	-9.2%
COc1ccc(CCNC(=O)CCCCCn2c(=O)[nH]c3cc(OC)c(OC)cc3c2=O)cc1OC	-32.7%	7.0%
COc1ccc(NC(=O)Cn2c(=O)n(Cc3nc(C)no3)c(=O)c3cc4c(cc32)OCO4)cc1	18.1%	-11.2%
COc1ccc(NC(=O)C2CCN(S(=O)(=O)c3ccc4[nH]c(=O)ccc4c3)CC2)c(OC)c1	-29.1%	-6.5%
Cn1c(C(=O)N2CCCC(C(=O)N3CCN(c4ccccc4)CC3)C2)cc2sccc21 (configuration not stated)	-17.9%	-22.8%
CCOc1ccc(N(CC(=O)NCc2ccc(OC)cc2)S(=O)(=O)c2c(C)[nH]c(=O)[nH]c2=O)cc1	8.9%	5.0%
Cc1ccc(C(=O)CC2(O)C(=O)N(CCc3ccccc3)c3ccc(Br)cc32)cc1 (configuration not stated)	?	?
CCc1ccc(CNCc2c(C(=O)O)n(Cc3ccc(C)cc3)c3cc(C)ccc23)cc1	?	?
Cn1c(Oc2ccc(F)cc2)nc2c1c(=O)n(Cc1ccccc1Cl)c(=O)n2C	?	?
Cc1c(C(=O)Nc2ccccc2Br)oc2ccc(S(=O)(=O)N3CCOCC3)cc12	?	-1.8%
CCCCNC(=O)C(CC)Sc1nc2ccccc2c(=O)n1CCc1ccc(OC)c(OC)c1 (configuration not stated)	?	-10.8%
Cc1ccccc1-c1noc(-c2cccnc2NCc2ccco2)n1	-0.4%	49.2%[activator]
Cc1ccc(C)c(C(=O)c2c(N)c(-c3nc(-c4ccc5c(c4)OCO5)cs3)c3ccccn23)c1	?	-36.4%
COc1cccc(CNC(=O)C2CCN(C(=O)c3sccc3-n3cccc3)CC2)c1	0.5%	-19.4%
COc1ccc(-c2nc(CN3CCC(C(=O)NCCCOC(C)C)CC3)c(C)o2)cc1OC	36.2%	-0.5%
Cc1ccc(-c2nnn3c2nc(N2CCC(C)CC2)c2ccccc23)cc1	-6.0%	2.6%
CC(=O)c1cccc(NC(=O)c2ccc(-n3c(C)nnc3C)cc2)c1	46.3%	-14.9%[11.5 µM]
COc1ccc(S(=O)(=O)n2nc(C)c(S(=O)(=O)N3CCC(C)CC3)c2C)cc1C	19.5%	4.5%
CCOC(=O)C(C)NC(=O)c1c(C)oc2ncn(CC(C)C)c(=O)c12 (configuration not stated)	-12.1%	0.0%

Five of the compounds above, bar-delimited.
Compound | PMP22 txn prim | HTT prom inh
Cn1c(C(=O)N2CCCC(C(=O)N3CCN(c4ccccc4)CC3)C2)cc2sccc21 (configuration not stated) | -17.9% | -22.8%
CCOc1ccc(N(CC(=O)NCc2ccc(OC)cc2)S(=O)(=O)c2c(C)[nH]c(=O)[nH]c2=O)cc1 | 8.9% | 5.0%
Cc1ccc(C(=O)CC2(O)C(=O)N(CCc3ccccc3)c3ccc(Br)cc32)cc1 (configuration not stated) | ? | ?
CCc1ccc(CNCc2c(C(=O)O)n(Cc3ccc(C)cc3)c3cc(C)ccc23)cc1 | ? | ?
Cn1c(Oc2ccc(F)cc2)nc2c1c(=O)n(Cc1ccccc1Cl)c(=O)n2C | ? | ?

More results follow:
SMILES	PMP22 txn prim	HTT prom inh
CCCCn1c(CCCNC(=O)c2cccc(C)c2)nc2ccccc21	-23.8%	?
COc1cc(C(=O)Nc2ccc3nn(-c4ccc(F)cc4)nc3c2)cc(OC)c1OC	0.3%	0.7%
CC(=O)OC(C)C[N+](C)(C)C (configuration not stated)	·	2.0%
CCOC(=O)c1cccc(NC(=O)c2cc(-c3ccc(Cl)s3)nc3ccccc23)c1	-6.3%	0.0%
Brc1ccc2c(c1)NC(c1cccnc1)=NC(c1ccccc1)=N2	-8.4%	48.5%[activator]
COc1cccc(NC(=O)CC(C)S(=O)(=O)c2ccc3c(c2)NC(=O)CO3)c1 (configuration not stated)	1.7%	5.1%
CCOC(=O)N1CCC(NC(=O)c2c(C)nn(-c3cccc(C)c3)c2-n2cccc2)CC1	-7.1%	?
O=C(Nc1cccc(-c2nc3ccccc3o2)c1)c1cccc2c(Cl)cccc12	-15.9%	-15.9%
CCC(Sc1nc2nccnc2c(=O)n1Cc1ccc(C)cc1)C(=O)NC1CCCCC1 (configuration not stated)	-2.7%	-17.4%
COc1ccc(N2CCN(C(=O)c3sc4nc5n(c(=O)c4c3C)CCC5)CC2)cc1	-15.0%	-2.6%
COc1ccc(Br)cc1CNC(=O)C1COc2ccccc2C1 (configuration not stated)	-11.6%	23.8%
COc1ccc(-c2cc(C(F)F)n3ncc(C(=O)Nc4cc(OC)ccc4OC)c3n2)cc1	-12.9%	-0.8%
COc1ccccc1CNC(=O)c1cccc(NC(=O)N2CCSc3ncccc32)c1	-2.5%	-18.1%
Cc1ccc(CN2CCC(CNC(=O)Nc3ccc(Cl)cc3)C2)cc1 (configuration not stated)	?	-25.2%
CC(=O)c1ccc(N2CCN(C(=O)C3CCN(S(=O)(=O)c4c(C)noc4/C=C/c4ccc(C)cc4)CC3)CC2)cc1	?	?
O=S(=O)(NCc1nc2cccnc2n1Cc1ccccc1Cl)c1ccc2c(c1)CCCC2	-21.9%	-15.3%
COc1cccc(Cn2c(=O)n(-c3ccc(C)c(F)c3)c(=O)c3sc4ccccc4c32)c1	?	-13.7%
O=C(/C=C/c1ccco1)Nc1ccc(Cl)c(-c2nc3cc(Cl)ccc3o2)c1	?	-27.1%
COC(=O)C1=C(c2ccccc2)c2ccccc2S(=O)(=O)N1CC(=O)Nc1ccccc1C(F)(F)F	7.5%	-13.5%
CCc1cc2c(cc3c(=O)n(CC(=O)N4CCN(c5cccc(C)c5C)CC4)nc(CC)n32)s1	1.3%	-9.1%
Cc1n[nH]c(C)c1S(=O)(=O)N(CC(=O)Nc1ccc(C(F)(F)F)cc1)c1ccc(C(C)C)cc1	?	?
COc1ccc(NC(=O)C2Cc3ccccc3CN2S(=O)(=O)c2ccccc2)cc1OC (configuration not stated)	12.7%	-13.7%
COc1ccc(-c2nc(SCC(=O)NC3CCCC3)c(-c3ccccc3)[nH]2)cc1OC	-4.8%	-3.9%
COC(=O)c1cccc(NC(=O)N(C)CCc2c(C)nn(C)c2C)c1	23.2%	0.0%
CCCC12CN3CC(C)(CN(C1)C3c1cn(C)c3ccccc13)C2=O (configuration not stated)	23.6%	-18.6%
SMILES	PMP22 txn prim	HTT prom inh
CCC1=C[C@@H]2CN(C1)Cc1c([nH]c3ccccc13)[C@@](C(=O)OC)(c1cc3c(cc1OC)N(C)[C@@H]1[C@@](O)(C(=O)OC)[C@H](OC(C)=O)[C@]4(CC)C=CCN5CC[C@]31[C@@H]54)C2	·	?
Cc1cc(C)c(NC(=O)Cn2c(=O)n(CC3CCCO3)c(=O)c3ccccc32)c(C)c1 (configuration not stated)	5.3%	-7.2%
CCOc1ccc(S(=O)(=O)NCCc2csc3nc(-c4ccc(F)cc4)nn23)cc1	?	25.1µM*
CCc1ccc(NC(=O)Cn2c(-c3cncs3)nc3ccccc32)cc1	-0.1%	-3.4%
Cc1cc(C)cc(NC(=O)CSc2nc3c(oc4ccccc43)c(=O)n2-c2ccccc2F)c1	-13.9%	-9.2%
COc1ccc(N2CCN(C(=O)CSc3nc(-c4ccc(C(C)C)cc4)no3)CC2)cc1	-21.6%	?
CCN(C(=O)C(=O)Nc1ccc2nc3n(c(=O)c2c1)CCCCC3)c1ccc(F)cc1	-19.8%	0.0%
Cc1cccc(Cn2c(C)c(CNC3CCCCC3)c(C(=O)O)c2C)c1	-5.2%	-15.2%
CCC(=O)C1=C(c2ccccc2)N(C(=O)CC)n2c(nnc2-c2ccccc2)S1	6.2%	-12.5%
Cc1ccc(C(=O)Nc2ccc3nc(SCC(=O)N4CCc5ccccc54)sc3c2)cc1	-41.7%	-0.8%
Cc1nc2nc(NCc3ccc(Br)cc3)[nH]n2c(=O)c1Cc1ccccc1	2.9%	-12.2%
COc1ccccc1NC(=O)CN1C(=O)CCSc2ccccc21	3.7%	-15.5%
OC(CCCN1CCCCC1)(c1ccccc1)c1ccccc1	·	-8.6%
Nc1nn(-c2ccccc2)nc1C(=O)OCc1ccccc1	-10.1%	19.9%
COc1ccc2c(c1)NC(c1cccnc1)=NC(c1ccc(F)cc1)=N2	-1.9%	26.8%
COc1cn(CC(=O)Nc2cccc(C)c2C)c(CN2CCCCC2)cc1=O	?	-17.1%
CCN(c1ccccc1)c1nnc(NC(=O)Nc2ccc(Br)cc2F)s1	-1.4%	5.9%
CCc1nn2c(=O)cc(COC(=O)c3cccc(NC(=O)c4ccccc4Cl)c3)nc2s1	-15.2%	3.6%
COc1ccccc1CNC(=O)CCCn1c(=O)c2ccccc2n(Cc2ccc(F)cc2)c1=O	?	?
CC(C)c1ccc(S(=O)(=O)c2nnn3c2nc(NCc2cccs2)c2sccc23)cc1	-2.3%	-6.1%
Cn1c(=O)c2sccc2n2c(CCC(=O)NCc3ccccc3)nnc12	-9.6%	4.3%
Cc1cccc(NC(=O)CCn2nc(C)c3c(C)n(-c4ccccc4)nc3c2=O)c1C	-4.0%	-19.9%

This is a subset; the hit share may differ from the screen's.
